# Bioassay records as filed in PubChem BioAssay.
# LASV entry inh: inhibitors of Lassa virus binding or entry into cells | Lassa virus pseudotyped entry inhibition, cell-based qHTS; control for the full effect not named in the record; many of its hits are not listed in these tables | Potency, µM (top dose mostly 49.2 µM), for inactives: at the highest dose activity change, negative = inhibition, usual class: inhibitors | 4.1% of 18,000 active; active = well fitted inhibition curve with a large enough effect; inconclusive = small, poorly fitted or top-dose-only effect; inactive = no such curve, though single readings can be large or run the other way; tested in HEK293 cells; further: luciferase read-out
# MARV entry inh: inhibitors of Marburg virus binding or entry into cells | Marburg virus pseudotype entry/binding inhibition, cell-based; control for the full effect not named in the record; many of its hits are not listed in these tables | Potency, µM (highest dose often 49.2 µM), for inactives: at the top dose activity change, negative = inhibition, actives largely listed as inhibitors | 6.5% of 18,000 active | AID 720532; active means well fitted inhibition curve with a large enough effect; inconclusive means small, poorly fitted or top-dose-only effect; inactive means no such curve, though single readings can be large or run the other way; tested in HEK293 cells; further: luciferase read-out
# * = called active by the depositor; ? = inconclusive; · = no result given; & = joins results of further samples; [ ] = remark or other dose. On the % scale 0 is the no-effect control and ±100 the full control effect; potency means the concentration at half of the fitted maximal effect.
SMILES | LASV entry inh | MARV entry inh
O=S1CCN(Cc2ccc(-c3ccc4ncnc(Nc5ccc(OCc6cccc(F)c6)c(Cl)c5)c4c3)o2)CC1 | · | ?
N#Cc1ccccc1-c1cncnc1NCc1cccnc1 | -13% | 3%
Cc1cccc(CNC(=O)c2cnn(-c3nccc(-c4ccccc4F)n3)c2C)n1 | -2% | -22%
NCCC[C@@H](CC(=O)N[C@@H]1CCNC[C@H]1C(=O)N[C@H](CC(=O)N[C@@H](CCC(=O)O)CC(=O)O)Cc1c[nH]c2ccccc12)NC(=O)C[C@H](CO)NC(=O)[C@@H]1CCCC[C@H]1N | -1% | 13%
CCCNC(=O)N1C2=NC(C(=O)OC)=C(C(=O)OC)[C@@H]3N(C)c4ccc(OC)cc4[C@]23C[C@H]1C(=O)OC | · | ?
O=C(CCBr)N1CCN(C(=O)CCBr)CC1 | 2% | 18%
CC(C)(C)OC(=O)N[C@@H](Cc1c[nH]c2ccccc12)C(=O)O | -6% | 11%
CC12CCCC(O)(C1)C1CC(C)(C)C1CC2 (stereo not given) | -3% | 11%
CC(C)[C@@H](CC(=O)N[C@@H]1CCNC[C@H]1C(=O)N[C@H](CC(=O)N[C@@H](CCC(=O)O)CC(=O)O)Cc1ccccc1)NC(=O)C[C@H](CO)NC(=O)[C@@H]1CNCC[C@H]1N | 0% | 1%
Cc1ccc(CN2CCC=CS2(=O)=O)cc1 | 18% | 9%
COC1(C)CCC2OC2(C)CCC2C1CC2(C)C (stereo not given) | -13% | 8%
CC(C)(C)OC(=O)c1ncn2c1[C@@H]1CCCN1C(=O)c1c(Br)cccc1-2 | 0%&-12% | 5%&-2%
Nc1ccccc1C(=O)O | -8% | 7%
O=C1C=CC2=C3c4cc(O)c(O)cc4C[C@]3(O)COC2=C1 | -17% | ?
COc1cc(OC)c2c(-c3cccc(-c4sccc4C(C)=O)c3)cc(=O)oc2c1 | ? | ?
CO[C@]12CC(COC(=O)c3cncc(Br)c3)CN(C)[C@@H]1Cc1cn(C)c3cccc2c13 (stereo not given in full) | -5% | 1%
COc1ccc(-c2ccc(CN3C(C(C)C)C(=O)N(Cc4cn(CCC5OCCCO5)nn4)CCS3(=O)=O)cc2)cn1 (stereo not given) | 13% | 50%[activator]
O=C1N(CC2CC2)c2cccc(Br)c2[C@@]12O[C@H](COc1ccccc1)CC1=CCCC12 (stereo not given in full) | -7%[8.59 µM] | ?
O=C(Cn1cc(COc2ccccc2C(F)(F)F)nn1)c1ccc(O)cc1 | -27% | 22%
C[C@@H]1CCCN1[C@@H]1C[S+](=O)([O-])N[C@@H]1COCc1ccccc1 | 8% | 14%
COc1ccc(C(=O)NCC2Cc3cc(C)cc(-c4nc5ccccc5s4)c3O2)c(OC)c1OC (stereo not given) | -11% | -6%
O=C(O)c1ccccc1-c1c2cc(Br)c(=O)c(Br)c-2oc2c(Br)c(O)c(Br)cc12 | 2% | -6%
CCOC(=O)CN1C(=O)N[C@@H](c2ccccc2)C(C(=O)OC)=C1C | 2% | -11%
O=C(NCCCN1CCCCCC1)[C@@H](c1ccccc1)C1CCCCC1 | ? | 13µM*
COc1ccc(NC(=O)C[C@H]2C(=O)N(c3ccccc3)C[C@@H]2Cc2ccccc2)cc1 | -30% | -21%

# 3 structures out of the list, sorted by molar mass, rising:
SMILES | LASV entry inh | MARV entry inh
N#Cc1ccccc1-c1cncnc1NCc1cccnc1 | -13% | 3%
COc1ccc(-c2ccc(CN3C(C(C)C)C(=O)N(Cc4cn(CCC5OCCCO5)nn4)CCS3(=O)=O)cc2)cn1 (stereo not given) | 13% | 50%[activator]
CC(C)[C@@H](CC(=O)N[C@@H]1CCNC[C@H]1C(=O)N[C@H](CC(=O)N[C@@H](CCC(=O)O)CC(=O)O)Cc1ccccc1)NC(=O)C[C@H](CO)NC(=O)[C@@H]1CNCC[C@H]1N | 0% | 1%

# Later entries
SMILES | LASV entry inh | MARV entry inh
COc1cccc(CNC(=O)c2c(OC)cc(=O)n3c2CCN(C(=O)c2ccoc2C)CC3)c1 | 1% | 1%
CCN1C(=O)N(S(=O)(=O)C(F)(F)F)C(c2ccccc2)C(C(=O)OC)=C1C (stereo not given) | 33%[activator][8.59 µM] | -6%[8.59 µM]
CC(=O)C1=C(C)N(Cc2ccco2)C(=O)NC1c1ccccc1 (stereo not given) | 5%[8.59 µM] | -1%[8.59 µM]
C/C=C/c1ccc(O)c(OC)c1 | -5% | 7%
Cn1c(-c2nc(-c3ccccc3)cs2)nc2ccccc21 | 32% | 119%[activator]
COc1cccc(-c2ccc3ncnc(NCc4ccccc4OC)c3c2)c1 | 1% | 13%
C=C1C[C@]23C[C@@]1(O)CC[C@H]2[C@@]12C=C[C@H](O)C(C)(C(=O)O1)[C@H]2[C@@H]3CC(=O)O | -10% | -15%
CC[C@H](C)C(=O)O[C@H]1CCC=C2C=C[C@H](C)[C@H](CC[C@@H]3C[C@H](O)CC(=O)O3)[C@H]21 | -16% | -2%
OC(c1ccc2c(c1)CN(Cc1cccn1-c1ncccn1)CCO2)C1CCCCC1 (stereo not given) | -5% | -4%
C=CCc1ccc(O)c(-c2ccc(O)c(CC=C)c2)c1 | ? | -26%&-16%
CCCCOC(=O)c1cc2c(cn1)[nH]c1ccccc12 | ? | -6%&99%&13%
c1cnn2ncc(-c3ccnc(Nc4ccc5c(c4)OCCO5)n3)c2c1 | · | 2.8µM*
COC(=O)NC(c1ccccc1)c1c[nH]c2ccc(OC)cc12 (stereo not given) | 2% | 1%
CCCc1cc(OC)c2c(c1)OCO2 | 7% | 8%
Cc1ccc2c(c1)c(CC(NC(=O)c1ccccc1Oc1ccccc1)C(=O)O)cn2C(=O)OCc1ccccc1 (stereo not given) | -17% | -8%
CCCCC/C=C\C/C=C\C/C=C\CCCCCCC(=O)O[C@H](COCCCCCCCCCCCCCCCC)COP(=O)([O-])OCC[N+](C)(C)C | -7% | -3%
CCCC=Cc1ccc(CN2C(C)C(=O)N(Cc3cn(Cc4ccco4)nn3)CCS2(=O)=O)cc1 (stereo not given) | -2% | ?
COc1cc(OC)c2c(-c3cccc(-c4ccc(N(C)C)cc4)c3)cc(=O)oc2c1 | ? | 3.5µM*
[O][C@H]1[C@@H](O)[C@@H](CO)O[C@@H](O[C@@H]2[C@@H]3OC[C@H]2O[C@H](O[C@@H]2[C@@H](O)[C@H](C[C@@H]4[C@@H]5OC[C@H]4O[CH][C@@H]5O)O[C@H](CO)[C@@H]2OS(=O)(=O)O)[C@@H]3OS(=O)(=O)O)[C@@H]1O | -6% | 11µM*
COc1cc(-c2nc(C)cnc2C)cc2c1OCCN(C(=O)Cc1cc(OC)c(OC)c(OC)c1)C2 | -10% | -2%
CC1(C)[C@@H](OC(=O)CCC(=O)O)CC[C@]2(C)[C@H]3C(=O)C=C4[C@@H]5C[C@@](C)(C(=O)O)CC[C@]5(C)CC[C@@]4(C)[C@]3(C)CC[C@@H]12 | -5%[17.8 µM] | 12%[17.8 µM]
N#C/C(=C\c1ccc(O)c(O)c1)C(N)=O | -10%&4% | 3%&4%
COc1cccc(CNS(=O)(=O)c2cc(Br)ccc2Br)c1OC | 13% | 20%
CCN1C(=O)N[C@@H](CCc2ccccc2)[C@H](C(C)=O)[C@H]1C | 13%[8.59 µM] | 38%[activator][8.59 µM]
C[C@@H]1CC[C@H]2[C@@H](C)C(=O)O[C@@H]3OC4(C)CC[C@@H]1[C@]32OO4 | -15% | -16%
CNc1ccnc(-c2ccccc2CN(C)C)n1 | 4% | -5%
O=[N+]([O-])c1ccc(CN2CC(N3CCC(Cc4ccccc4)CC3)CS2(=O)=O)cc1 (stereo not given) | 7% | -27%
NC(CCC(=O)NC(CCSC(CC(=O)O)C(=O)O)C(=O)NCC(=O)O)C(=O)O (stereo not given) | -3% | 9%
OC[C@H]1OC(O)[C@@H](O)[C@@H](O)[C@@H]1O (stereo not given in full) | 5% | 6%
CCN1CCCC1CNC(=O)c1cnn(-c2nccc(-c3ccccc3F)n2)c1C (stereo not given) | 6% | -14%
N#CN=C1SCCN1Cc1ccc(Cl)nc1 | -9% | ?
COc1cccc2c1C(=O)CC(c1ccccc1)O2 (stereo not given) | -15% | 7%
CNCC(=O)N[C@@H](CCCN=C(N)N)C(=O)N[C@H](C(=O)N[C@@H](Cc1ccc(O)cc1)C(=O)N[C@H](C(=O)N[C@@H](Cc1cnc[nH]1)C(=O)N1CCC[C@H]1C(=O)N[C@@H](C)C(=O)O)C(C)C)C(C)C | -5% | 16%
O=C(O)c1ccccc1O[C@@H]1O[C@H](C(=O)O)[C@@H](O)[C@H](O)[C@H]1O | -1% | 5%
Cc1cccc2c(N=Nc3ccc(S(N)(=O)=O)cc3)c(O)[nH]c12 | 58%[activator] | -15%
C=CCN1C(=O)CC[C@@]23C1=NC(C(=O)OC)=C(C(=O)OC)[C@@H]2N(C)c1ccccc13 | 14%[8.59 µM] | 14%[8.59 µM]
CC(=O)OCC1OC(Oc2cc(OC(C)=O)c3c(=O)cc(-c4ccc(OC(C)=O)c(OC(C)=O)c4)oc3c2)C(OC(C)=O)C(OC(C)=O)C1OC(C)=O (stereo not given) | ? | ?
CC(C)C1C(=O)N(Cc2cn(Cc3ccco3)nn2)CCS(=O)(=O)N1Cc1ccc(-c2ccncc2)cc1 (stereo not given) | 26% | 14%
COC1=CC=C2[C@H]3Cc4ccc(OC)c5c4[C@@]2(CCN3C)[C@H]1O5 | 13%[107 µM] | ?
COc1cccc([C@H]2Oc3ccc(OC)cc3C(=NO[C@@H](C)c3cc(-c4c(C)cc(C)cc4C)no3)[C@H]2O)c1 | 10%[8.59 µM] | 5%[8.59 µM]
FC(F)(F)C(F)(F)C(F)(F)C(F)(F)C(F)(F)C(F)(F)F | -9% | -1%
CCCCCCCNS(=O)(=O)c1cccc2c(Cl)cccc12 | -1% | 6%
COc1ccc(C2/C=C\CN(CC(C)C)CC(=O)N2Cc2cccc(F)c2)cc1 (stereo not given) | -21% | -19%
O=C(OCc1cn([C@@H]2CN(C(=O)C3CCCCC3)[C@@H](c3ccc(Cl)cc3)C[C@@H]2O)nn1)c1ccccc1 | 14% | ?
COc1ccc(-c2cc(=O)c3ccccc3o2)cc1OC | 26% | 24%
CCOC(=O)N1C2=NC(C(=O)OC)=C(C(=O)OC)[C@@H]3Nc4ccccc4[C@]23C[C@H]1C(=O)OC | -19%[8.59 µM] | ?
CC(C)Cc1nc2cc(NS(=O)(=O)N(C)C)cc(C(=O)N3CC4(C)CC3CC(C)(C)C4)c2n1C (stereo not given) | -23% | -1%
CCOC(=O)C1=C[C@]2(CC)CCCN3CCc4c(n1c1ccccc41)[C@@H]32 | ? | ?
COc1cc(/C=C\c2ccc(OC)cc2OC)cc(OC)c1 | -5% | -9%
CN1CCC(=C2c3ccccc3Sc3ccccc32)CC1 | ? | 4µM*

# Brought forward from above: five entries; new compounds follow.
SMILES | LASV entry inh | MARV entry inh
CCOC(=O)N1C2=NC(C(=O)OC)=C(C(=O)OC)[C@@H]3Nc4ccccc4[C@]23C[C@H]1C(=O)OC | -19%[8.59 µM] | ?
CC(C)Cc1nc2cc(NS(=O)(=O)N(C)C)cc(C(=O)N3CC4(C)CC3CC(C)(C)C4)c2n1C (stereo not given) | -23% | -1%
CCOC(=O)C1=C[C@]2(CC)CCCN3CCc4c(n1c1ccccc41)[C@@H]32 | ? | ?
COc1cc(/C=C\c2ccc(OC)cc2OC)cc(OC)c1 | -5% | -9%
CN1CCC(=C2c3ccccc3Sc3ccccc32)CC1 | ? | 4µM*
O=C(O)COc1cc(Cl)c(Cl)cc1Cl | 3% | 10%
CCCCCCCCCCCCCCCC(=O)NCCc1ccc(O)c(O)c1 | 2% | -2%
CC(C)C[C@@H](/C=C/S(C)(=O)=O)NC(=O)[C@H](CC(C)C)NC(=O)[C@H](CC(C)C)NC(=O)OCc1ccccc1 | 1.1µM* | ?
COC(=O)C1CCCCN1Cc1ccc2c(c1)CN(Cc1cn[nH]c1-c1ccc(F)cc1)CCO2 (stereo not given) | -14% | -13%
O=C(OCCN1CCCCC1)C(O)(c1ccccc1)c1ccccc1 | -17% | -14%
CCCCCCCCCCCCCCC(F)C(=O)O (stereo not given) | -1%&2% | 7%&11%
O=C(CN1Cc2ccccc2OC(c2ccsc2)C1)NCc1ccc2c(c1)OCO2 (stereo not given) | 4% | 4%
O=S1(=O)C=CCN1 | 12% | 23%
CN1C[C@@H](NS(=O)(=O)N(C)C)C[C@@H]2c3cccc4c3c(cn4C)C[C@H]21 | -3% | -12%
CC(CCc1ccc2c(c1)OCO2)NN (stereo not given) | -11% | 4%
C=CCOC(=O)N[C@@H](c1ccccc1)[C@@H](C)[N+](=O)[O-] | -2% | 6%
C#CCn1c(=O)c2c(nc(/C=C/c3cccc(OC)c3)n2C)n(CCCOP(=O)(O)O)c1=O | -23% | -16%
COC1C(O)C(O)C(O)C(O)C1O (stereo not given) | 4% | -2%
CC[C@H](C)[C@H](NC(=O)[C@@H](NC(=O)[C@@H](CC(=O)NO)Cc1ccccc1)[C@@H](C)CC)C(=O)O | 3% | 10%
FC(F)(F)c1ccc(-c2noc(-c3ccccc3)c2I)cc1 | 4% | 3%
O[C@@H](CNC[C@H](O)[C@H]1CCc2cc(F)ccc2O1)[C@@H]1CCc2cc(F)ccc2O1 | ? | 10µM*
N=C(N)SCCN | 15%&-15% | 4%&1%
CC(CN1c2ccccc2Sc2ccc(S(=O)(=O)N(C)C)cc21)N(C)C (stereo not given) | -5% | ?
